Screening results (PubChem BioAssay)
D2 potentiator = positive allosteric modulators of human D2 dopamine receptor; P14416; DiscoveRx D2 beta-arrestin cells, luminescence, 90 min; 100% = 57 uM dopamine signal; potentiation, % (concentration not given with the values); 0.23% of 360,000 active; AID 624464; active = potentiation of 50% or more; inconclusive = 30% to 50%; inactive = 30% or less;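 further: compound concentration not given in the record; tested on top of an EC20 dose of dopamine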
Target sequence (P14416 whole entry, looked up): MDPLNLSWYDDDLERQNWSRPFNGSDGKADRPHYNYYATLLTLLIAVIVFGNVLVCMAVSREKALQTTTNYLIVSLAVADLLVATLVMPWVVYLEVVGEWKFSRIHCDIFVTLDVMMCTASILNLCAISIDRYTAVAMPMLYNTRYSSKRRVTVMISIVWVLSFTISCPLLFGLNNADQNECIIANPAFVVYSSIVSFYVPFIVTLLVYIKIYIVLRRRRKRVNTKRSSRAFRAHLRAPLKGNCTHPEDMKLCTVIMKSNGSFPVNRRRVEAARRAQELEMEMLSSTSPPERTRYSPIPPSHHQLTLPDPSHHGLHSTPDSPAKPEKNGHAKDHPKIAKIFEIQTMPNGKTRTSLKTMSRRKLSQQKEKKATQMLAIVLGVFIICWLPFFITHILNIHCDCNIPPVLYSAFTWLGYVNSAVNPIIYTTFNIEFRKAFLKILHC
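PathHunter D2 cells, attached overnight at 37 deg C, received compound in DMSO plus dopamine at EC20 (50 nM final) for 90 min at 37 deg C. Beta-arrestin recruitment was read as luminescence after 1 h with detection reagent at ambient temperature.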
TRPV1 PAM = enhances activation of the human vanilloid receptor TRPV1. Q8NER1. TRPV1-expressing cells, Fluo-8 calcium influx, capsaicin EC20 potentiation; host cell line not named in the record; control for the full effect not named in the record. potentiation, % at 8.33 µM. 0.02% of 320,000 active; active means potentiation above 80%; inconclusive means 30% to 80%; inactive means below 30%; further: 0% is about no effect
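TRPV1-expressing cells were cultured overnight at 35.5C and loaded with Fluo-8 calcium dye for 40 to 90 min at room temperature. After a 10 s baseline, compound was added and calcium influx was read kinetically for 3 min (ex 480/em 520 nm).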
Sfp PPTase inh = blocks B. subtilis Sfp PPTase activity; Q9F4F7; Biochemical Sfp PPTase activity, qHTS; Potency, µM, without a hit: max response, negative = inhibition, most hits filed as inhibitors; 3.5% of 310,000 active; AID 1490; active means well fitted inhibition curve with a large enough effect; inconclusive means small, poorly fitted or top-dose-only effect, or another doubt; inactive means no such curve, though single readings can be large or run the other way;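 further: the enzyme is Sfp with the accession as filed and its product quenches rhodamine fluorescence; potency means the concentration at half of the fitted maximal effect; 0% = enzyme reaction without inhibitor and -100% = no enzyme wells; top concentration of the series not given in the record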
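Reaction rates are the 30-min fluorescence difference (ex 525, em 598 nm) in wells containing 15 nM Sfp, 5 uM rhodamine-CoA and 12.5 uM BHQ-2-YbbR at pH 7.6 with 10 mM MgCl2.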
ClpP mod = qHTS Assay for Activators of ClpP; purified B. subtilis ClpP, FRET peptide cleavage, 20 min; Potency, µM (titrated, usually from 57.5 µM), without a hit: at the top dose activity change, negative = active; ATP-dependent Clp protease proteolytic subunit (Bacillus subtilis (strain 168)), P80244; 1.9% of 340,000 active; active = well fitted falling curve with a large enough effect; inconclusive = small, poorly fitted or top-dose-only effect; inactive = no such curve, though single readings can be large or run the other way; further: potency means the concentration at half of the fitted maximal effect; the source files actives as falling curves though it sought activators and does not explain the sign; nearly all actives have a fitted effect of over 65% in size; many hits overshoot -100%
Target sequence (P80244 whole entry, looked up): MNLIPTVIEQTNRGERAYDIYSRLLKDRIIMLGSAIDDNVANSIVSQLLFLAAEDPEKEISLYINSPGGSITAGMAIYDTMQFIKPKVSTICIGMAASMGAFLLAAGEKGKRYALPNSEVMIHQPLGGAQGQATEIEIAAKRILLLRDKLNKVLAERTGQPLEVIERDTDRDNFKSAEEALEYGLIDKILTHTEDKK
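FRET quenching reversal measured ClpP activation: 10 microg/mL B. subtilis ClpP at pH 8 with the FRET-FV decapeptide, read at 430 nm after 320 nm excitation. The 20-min minus 0-min signal was scaled between DMSO/no-enzyme wells and ADEP (5.8 microM final).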
Menin MLL FP FL = inhibitors of human menin-MLL interaction, wild-type MLL peptide. 290,000 tested, under 10 active. Fluorescence polarization, fluorescein-MLL peptide displacement from menin. AID 1766. FP activity change, % at 61.4 µM; inconclusive = falling polarisation curve, or a change in total fluorescence; inactive = total fluorescence flat and polarisation flat or rising; no compound was filed as active; the % refers to the polarisation; negative = inhibition;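 further: % of control where 0% means no effect; inhibitors lower the polarisation; unlabelled MLL peptide was the positive control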
gsp antag = antagonists of gsp mutant (McCune-Albright syndrome). gsp-mutant cells, cAMP HTRF, 30 min; control for the full effect not named in the record. Potency, µM (doses to about 76.9 µM), without a hit: top-dose activity change, negative = inhibition, hits mostly inhibitors. 0.4% of 340,000 active; active = falling curve of any shape with a large fitted effect; inconclusive = falling curve, mostly with a smaller effect; inactive = flat or rising curve; cell line not stated here;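 further: intracellular cAMP measured with PDE inhibitor Ro 20-1724 present during compound exposure; potency means the concentration at half of the fitted maximal effect; on the % scale 0 is the no-effect control and ±100 the full control effect; nearly all actives have a fitted effect of over 65% in size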
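Measurement of cellular cAMP by homogeneous time-resolved fluorescence following a 30 min compound exposure at 37C. The PDE inhibitor […] was present throughout; the assay buffer was DPBS with 0.05% BSA and 0.005% Tween 20.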
gsp agonist = gsp mutant agonism; 0.13% of 340,000 active; Potency, µM (top dose mostly 76.9 µM), for inactives: top-dose activation (cAMP increase), most hits filed as activators; AID 624287; gsp mutant cells, cAMP HTRF, 30 min; control for the full effect not named in the record; active = well fitted activation curve with a large enough effect; inconclusive = small, poorly fitted or top-dose-only effect, or another doubt; inactive = no such curve, though single readings can be large or run the other way; cell line not stated here;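 further: phosphodiesterase inhibitor Ro 20-1724 added with compounds to block cAMP breakdown; potency means the concentration at half of the fitted maximal effect; nearly all actives have a fitted effect of over 60% in size; about a fifth of the inactives were tested at one dose only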
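Cells in DMEM/10% FBS with G418 were pretreated with compounds in DMSO plus […] (300 uM stock) for 30 min at 37C. cAMP was measured by HTRF (cAMP-d2 plus anti-cAMP antibody-K) after 30 min at room temperature.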
The depositor's hits bear a star; ? = inconclusive; nt = no result given; [ ] = remark or other dose. No enrichment for hits. About 5.1% of those tested had a hit in this group.

SMILES	D2 potentiator	TRPV1 PAM	Sfp PPTase inh	ClpP mod	Menin MLL FP FL	gsp antag	gsp agonist
Cn1nnnc1SCC(=O)N(C1CCCCC1)C1CCS(=O)(=O)C1 (stereo not given)	-4	-3	13%	nt	0.2	7%	-3%[15.4 µM]
CC(C)n1c(NCc2ccc(Cl)cc2)nc2ccccc21	-19	18	13%	nt	-0.8	-2%	11%[15.4 µM]
N/C(=N\OC(=O)c1ccc(Cl)c(Cl)c1)c1cccc(CSc2ccccn2)c1	13	1	7%	-2.6%	3.7	0%	-4%[15.4 µM]
Cc1ccc(S(=O)(=O)N2CCc3ccccc3C2CC(=O)O)cc1 (stereo not given)	-4	3	1%	-0.9%	-1.1	-7%	2%
CCCC(=O)N1CC(=O)Nc2ccc(Br)cc2C1c1ccc(F)cc1 (stereo not given)	1	8	4%	nt	4.5	-2%	2%
N#C/C(=C\c1ccc(C(=O)O)cc1)c1nc2sc3c(c2c(=O)[nH]1)CCCC3	1	25	-13%	-8.9%	?	3%	-24%
N#CC(CC(=O)c1ccc(F)cc1)c1ccc2c(c1)OCO2 (stereo not given)	-4	-37	7%	-1.3%	-2.8	5%	2%[15.4 µM]
CCCCCCn1cc(C(=O)OCC)c(=O)c2cc(F)c(F)cc21	4	-16	8%	1.0%	3.9	-6%	5%[15.4 µM]
Fc1ccccc1C(c1nnnn1C1CCCC1)N1CCN(Cc2ccccc2)CC1 (stereo not given)	-17	-2	5%	-1.2%	1.7	10%	-17%
CCCOC(=O)c1cccc(NC(=O)C(C)(C)C)c1	11	-32	14%	-1.2%	5.3	-7%	12%
Cc1cccc(CN2C(=O)c3ccccc3Sc3ccc(C(=O)O)cc32)c1	-14	-1	-7%	0.3%	0.8	-17%	2%
COc1ccc([N+](=O)[O-])cc1C(=O)NC1CCN(Cc2ccccc2)CC1	-18	nt	nt	0.5%	nt	-10%	-49%[inhibitor]
CCOC(=O)C1C(=O)NC(c2ccccc2)=NC1c1cccc(Br)c1 (stereo not given)	-2	-8	6%	nt	3.0	4%	-1%
Cc1cccc(Oc2ccc(Cl)cc2N)c1	-6	-1	17%	nt	-4.2	-7%	?
CCOc1ccccc1C(=O)NCC(=O)NCC(C)(C)N1CCOCC1	-5	2	nt	-2.9%	nt	-10%	4%
COc1ccc(NC(=O)CN2CCN(CC(=O)Nc3ccc(F)cc3)CC2)c(OC)c1	-23	2	0%	-1.8%	-1.1	-5%	7%
CCC(C)NCCCOc1c(C)cc(C)cc1Br (stereo not given)	-33	5	?	5.6%	1.7	18%	0%
COc1ccccc1OCCC(=O)OCC(=O)NC(C)c1ccccc1 (stereo not given)	-5	7	4%	-15%	-1.6	6%	-3%
O=C(Nc1cc(Br)ccc1O)c1cc(-c2ccccc2)on1	5	0	10%	1.3%	nt	3%	-3%
Cc1ccccc1-c1noc(CNC(=O)c2ccco2)n1	-6	11	10%	nt	3.2	5%	4%[15.4 µM]
Cc1ccccc1Nc1nc(N)c2ccccc2n1	-29	3	-17%	-2.6%	1.5	8%	?
COc1ccc(S(=O)(=O)N2CCSC2)cc1C	-31	10	-2%	-1.0%	-3.9	10%	2%
O=C(NCCNc1ccc([N+](=O)[O-])cc1C(F)(F)F)c1ccc(F)cc1	-15	-34	-10%	-0.9%	nt	-4%	25%
CCOc1ccc(C(=O)Nc2ccccc2OC(F)F)cc1	-5	-4	11%	nt	-2.5	4%	9%[15.4 µM]
CCOc1ccccc1OCCCC(=O)Nc1cc(S(=O)(=O)N2CCOCC2)ccc1OC	-8	nt	nt	nt	nt	6%	6%
CCOC(=O)[C@H]1[C@H]2COc3ccc(Br)cc3[C@@H]2N2C(=O)CN(Cc3ccc(OC)cc3)C(=O)[C@@]12C	-3	-4	nt	-3.4%	nt	-16%	nt
O=C(CCC(=O)N1CCN(c2ccccn2)CC1)c1ccc(Cl)s1	-16	-3	nt	-5.9%	nt	-1%	-31%[inhibitor]
CCc1csc(CCNC(=O)C2CCC(=O)N(CCOC)C2)n1 (stereo not given)	-7	1	7%	-1.1%	-2.3	6%	?
CC(=O)C1=C(O)C(=O)N(CCc2c[nH]c3ccccc23)C1c1ccc(O)cc1 (stereo not given)	-4	25	15%	-1.8%	3.1	2%	?
CC1CCC(NC(=O)C(=O)Nc2ccc3c(c2)OCO3)CC1 (stereo not given)	7	9	14%	0.1%	nt	15%	20%
CCCCNC(=O)NNC(=O)COc1cc(C)cc(C)c1	-4	12	-7%	1.4%	3.3	22%	-12%[15.4 µM]
COC(=O)C1=CN(c2ccc(OC)cc2)C=C(C(=O)OC)C1c1ccc(C)c([N+](=O)[O-])c1	-5	1	10%	-1.9%	5.5	0%	-57%[inhibitor]
COCCC(=O)N1CCC(Oc2ccc(C(=O)NC3Cc4ccccc4C3)cc2)CC1	-1	3	7%	0.1%	nt	1%	1%
CCOc1ccc(-c2nn(-c3ccccc3)cc2/C=C(\C#N)S(=O)(=O)c2ccccc2)cc1C	-22	-5	11%	-5.1%	?	1%[15.4 µM]	?
Cc1cc2c(cc1S(=O)(=O)N1CCc3ccccc31)NC(=O)CO2	1	4	13%	nt	0.3	-8%	-11%[15.4 µM]
COc1ccc(CC(=O)OCC(=O)Nc2c(C)n(C)n(-c3ccccc3)c2=O)cc1OC	-3	-1	nt	0.2%	nt	21%	-53%[inhibitor]
CCOc1cc(/C=N/NC(=O)c2ccncc2)ccc1OC(=O)c1ccc([N+](=O)[O-])cc1	?	-22	6%	?	-3.7	-14%	-7%
CC(C)CC(NC(=O)COc1ccccc1)C(=O)O (stereo not given)	10	10	29%	-2.5%	3.3	15%	1%[15.4 µM]
CS(=O)(=O)NCCSc1nnnn1-c1ccccc1	-11	-2	11%	-1.4%	3.2	7%	-22%
CC(=O)N1CCN(C(=O)COc2ccc(Br)cc2)CC1	-7	3	?	-2.5%	1.0	5%	?

Some entries already given, limited to gsp agonist, Sfp PPTase inh and ClpP mod.
| canonical_smiles | gsp agonist | Sfp PPTase inh | ClpP mod |
| --- | --- | --- | --- |
| CCOc1ccc(-c2nn(-c3ccccc3)cc2/C=C(\C#N)S(=O)(=O)c2ccccc2)cc1C | ? | 11% | -5.1% |
| CS(=O)(=O)NCCSc1nnnn1-c1ccccc1 | -22% | 11% | -1.4% |

Going on with the list.
SMILES	D2 potentiator	TRPV1 PAM	Sfp PPTase inh	ClpP mod	Menin MLL FP FL	gsp antag	gsp agonist
N/C(Cc1ccc([N+](=O)[O-])cc1)=N\OC(=O)Cc1ccc(Cl)cc1	26	14	17%	0.4%	3.4	-12%	6%
Cc1ccc(C)c(N(CC(=O)NC2CCCCC2)C(=O)c2csnn2)c1	-4	8	3%	nt	-5.2	-5%	3%
O=[N+]([O-])c1cccnc1C1OCCO1	3	nt	nt	-0.4%	nt	nt	-22%
Cn1cnnc1SCc1ccccc1[N+](=O)[O-]	-5	-4	9%	-7.2%	0.7	12%	-2%[15.4 µM]
Cc1ccccc1CS(=O)(=O)CCC(=O)N1CCN(c2ccc(N3CCOCC3)nn2)CC1	2	-5	12%	22µM*	0.6	-3%	12%
CC(=O)N=c1sc2ccccc2n1C	1	-6	20%	0.6%	-1.1	3%	-18%
CCOc1ccc(-c2nn(-c3ccccc3)cc2/C=C2\SC(N)=NC2=O)cc1C	-3	-17	-2%	-4.9%	nt	13%	-50%[inhibitor]
CCC(C(=O)Nc1ccccc1C(=O)N1CCOCC1)N1C(=O)c2ccccc2C1=O (stereo not given)	-2	6	-7%	0.8%	-3.4	12%	-10%
Cc1cc(NC(=O)c2cc([N+](=O)[O-])cc([N+](=O)[O-])c2C)no1	2	29	79µM*	0.2%	1.4	12%	2%
O=C(CSc1cc(Cl)ccc1Cl)NCC(=O)Nc1ccc(F)c(F)c1F	-26	16	10%	2.6%	0.3	-25%	?
S=C(NNc1ccc2ccccc2c1)NC1CCCCC1	17	4	7%	-5.5%	7.3	1%	20%
Cn1cc(S(=O)(=O)NCc2ccc3c(c2)OCO3)c(C(F)(F)F)n1	-6	14	15%	1.0%	nt	20%	?
CC(Oc1ccccc1)C(=O)N1CCC2(CC1)Oc1ccc(F)cc1C(=O)C21CC(c2ccccc2)=NO1 (stereo not given)	-3	nt	nt	-1.2%	nt	-10%	-3%
CC(C)Nc1nc(N(c2ccccc2)c2ccccc2)nc(-n2ccnc2)n1	6	13	21%	1.5%	1.3	-1%	3%
CCN(Cc1cccs1)C(=O)CN1C(=O)NC2(CCCc3ccccc32)C1=O (stereo not given)	2	22	nt	0.4%	nt	12%	5%
Cc1cccc(NC(=S)NNC(=S)NC2CCCCC2)c1C	-28	16	?	0.6%	-2.3	8%	-12%
COc1ccc(C(=O)CC2OC(=O)c3c2ccc(OC)c3OC)cc1 (stereo not given)	-11	6	36%[activator]	-5.3%	-2.0	0%	10%
Cc1ccc([C@@H]2[C@@H]3C(=O)N(c4ccccc4)C(=O)[C@@H]3[C@]3(C)C(=O)N(Cc4ccccn4)CC(=O)N23)o1	-10	28	-28%	-0.3%	0.7	3%	16%
O=C(c1ccco1)N1N=C2CCCCCC2C1(O)C(F)(F)F (stereo not given)	1	11	2%	nt	7.0	3%	19%
O=C(Cn1cc([N+](=O)[O-])ccc1=O)N1CCCc2ccccc21	0	0	nt	-2.4%	nt	5%	7%[15.4 µM]
O=C(c1ccc(N2CCCC2)c([N+](=O)[O-])c1)N1CCN(S(=O)(=O)c2ccc(Cl)cc2)CC1	-30	2	nt	-1.5%	nt	-5%	-5%[15.4 µM]
CCOC(=O)c1ccc(NC(=O)CC2SC3=NCCN3C2=O)cc1 (stereo not given)	16	?	-3%	-0.2%	-2.2	5%	-18%[15.4 µM]
O=C(CSc1nc2ccccc2[nH]1)NCCN1CCCCC1	-30	nt	-7%	-0.2%	3.7	-7%	-15%
Cc1sc2ncnc(N=Nc3c(O)[nH]c4ccccc34)c2c1C	14	?	6%	0.6%	8.3	6%	-13%
CCCN(S(=O)(=O)c1ccc(OCC)cc1)S(=O)(=O)c1cccs1	-10	-3	?	-21%	-0.9	-8%	-3%
CN(CCc1cnn(C)c1)Cc1nc(Cc2ccccc2)no1	-5	3	18%	nt	3.1	0%	5%
Oc1c(N=Nc2ccc(F)cc2)ccc2ccccc12	3	-4	20%	nt	-15	12%	?
